Screening results deposited in PubChem BioAssay by National Center for Advancing Translational Sciences (NCATS).
LASV entry inh: Lassa virus entry inhibition. Potency, µM (top dose mostly 37.9 µM), inactives show at the highest dose activity change, negative = inhibition, actives largely listed as inhibitors. AID 540256. Lassa virus pseudotype entry inhibition, cell reporter; control for the full effect not named in the record. 300,000 tested, 1.2% active; active means well fitted inhibition curve with a large enough effect; inconclusive means small, poorly fitted or top-dose-only effect, or effect the other way; inactive means flat fitted curve, though single readings scatter; tested in HEK293 cells; note: % is set by controls: 0 for no effect and ±100 for the full control effect; nearly all actives have a fitted effect of over 50% in size; luciferase read-out
SARS PLpro yeast: SARS-CoV PLP inhibition in yeast | S. cerevisiae expressing SARS-CoV PLpro, growth rescue; control for the full effect not named in the record | Potency, µM (highest dose often 32.9 µM), for the others: at the highest dose activity, positive = growth rescue | 330,000 tested, 0.19% active | AID 485353; active means well fitted rising curve with a large enough effect; inconclusive means small, poorly fitted or top-dose-only effect; inactive means no such curve, though single readings can be large or run the other way; note: 0% is about no effect; nearly all actives have a fitted effect of over 55% in size; growth read by luminescence after 48 h
NS1 inh: influenza NS1 inhibition; S. cerevisiae slowed by influenza A NS1, growth recovery by OD600; Potency, µM (highest dose often 46.1 µM), for the others: at the highest dose activity, positive = more growth; 270,000 tested, 0.4% active; active means well fitted rising curve with a large enough effect; inconclusive means small, poorly fitted or top-dose-only effect; inactive means no such curve, though single readings can be large or run the other way; note: nearly all actives have a fitted effect of over 50% in size
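Recovery from NS1-induced slow growth read by OD600 in budding yeast switched to galactose assay medium (pH 6.0, -URA) at 1:100 dilution. Compound 23 nl per well; the matching strain lacking NS1 serves as control.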
2A StopGo: lowers the luciferase signal of an FMDV 2A StopGo reporter. Potency, µM (top dose mostly 57.9 µM), without a hit: at the top dose signal change, negative = less light. human cells with a luciferase reporter of 2A StopGo recoding; control for the full effect not named in the record. 410,000 tested, 1.2% active; active = well fitted falling curve with a large enough effect; inconclusive = small, poorly fitted or top-dose-only effect; inactive = no such curve, though single readings can be large or run the other way; tested in HEK293T cells; note: % is set by controls: 0 for no effect and ±100 for the full control effect; nearly all actives have a fitted effect of over 45% in size; luciferase light after 4 h
Cruzain noTriton: blocks cruzain activity in detergent-free assay; P25779; purified cruzain, Z-FR-AMC fluorescence, no detergent; Potency, µM, for inactives: max response, negative = inhibition, actives largely listed as inhibitors; 200,000 tested, 2.3% active;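 note: plate controls were enzyme without inhibitor for no effect and buffer without enzyme for full effect; nearly all actives have a fitted effect of over 40% in size; top concentration of the series not given in the record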
Target sequence (P25779 123-467 limits assumed): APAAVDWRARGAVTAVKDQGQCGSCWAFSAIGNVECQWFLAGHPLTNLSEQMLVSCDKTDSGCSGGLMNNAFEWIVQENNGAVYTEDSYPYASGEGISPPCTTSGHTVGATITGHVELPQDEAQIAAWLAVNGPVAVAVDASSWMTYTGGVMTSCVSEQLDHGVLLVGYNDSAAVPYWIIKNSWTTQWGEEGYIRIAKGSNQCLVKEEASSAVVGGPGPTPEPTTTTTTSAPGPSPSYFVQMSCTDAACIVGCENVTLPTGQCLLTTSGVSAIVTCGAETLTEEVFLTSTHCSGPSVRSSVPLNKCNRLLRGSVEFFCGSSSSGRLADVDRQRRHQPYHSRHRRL
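Detergent-free condition (0.00005% Triton X-100) in acetate buffer pH 5.5 with DTT. 1.5 nM enzyme and compound were pre-mixed 15 min, then 2 uM Z-FR-AMC substrate added; reaction progress from fluorescence change between first and third reads (60 s).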
Cruzain Triton: blocks cruzain activity in presence of Triton detergent; purified cruzain, Z-FR-AMC fluorescence, 0.01% Triton; Potency, µM, without a hit: max response, negative = inhibition, actives largely listed as inhibitors; 200,000 tested, 0.43% active; AID 1478;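 note: plate controls were neutral wells for no effect and buffer without enzyme for full effect; nearly all actives have a fitted effect of over 40% in size; top concentration of the series not given in the record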
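Z-FR-AMC hydrolysis (2 uM substrate) by cruzain (1.5 nM) monitored kinetically at ex 360/em 450 nm after 15 min room-temperature compound exposure; 0.01% Triton X-100, pH 5.5, 5 mM DTT.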
RE007 growth inh: less growth of the S. pombe RE007 Vpr strain. Potency, µM (top dose mostly 92.2 µM), without a hit: top-dose activity change, negative = less growth. 360,000 tested, 0.21% active. S. pombe RE007 Vpr strain, BacTiter-Glo ATP luminescence, 24 h; control for the full effect not named in the record. AID 651644; active = well fitted falling curve with a large enough effect; inconclusive = small, poorly fitted or top-dose-only effect; inactive = no such curve, though single readings can be large or run the other way;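 note: % is set by controls: 0 for no effect and ±100 for the full control effect; nearly all actives have a fitted effect of over 50% in size; the assay follows cell death caused by Vpr and the record does not say whether a fall means rescue or toxicity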
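Fission yeast strain RE007, carrying one chromosomally integrated HIV-1 vpr copy, was seeded at OD 0.01 in PMG+AL medium with 23 nL pinned compound. After 24 h at 30 °C and 99% humidity, viability was read by BacTiter-Glo luminescence.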
MARV entry inh: inhibitors of Marburg virus binding or cell entry; Marburg virus pseudotyped entry inhibition, cell reporter; control for the full effect not named in the record; about a third of the inactives were read at about 46 µM; AID 540276; 300,000 tested, 1.8% active; Potency, µM (top dose mostly 37.8 µM), for inactives: top-dose activity change, negative = inhibition, actives largely listed as inhibitors; active = well fitted inhibition curve with a large enough effect; inconclusive = small, poorly fitted or top-dose-only effect, or effect the other way; inactive = flat fitted curve, though single readings scatter; tested in HEK293 cells; about a fifth of its hits are not listed in these tables; note: % is set by controls: 0 for no effect and ±100 for the full control effect; luciferase read-out
Active calls of the source: *; ? = inconclusive; / = no result given; [ ] = dose if it differs, or a comment. Unless noted, calls come from the whole dose curve; as a rule, active = well fitted curve in the direction sought with a large enough effect; inconclusive = small, poorly fitted or top-dose-only effect, or another doubt; inactive = no such curve, though single readings can be large; an effect the other way counts as inactive or inconclusive. Potency is the fitted concentration of half-maximal effect.

SMILES	LASV entry inh	SARS PLpro yeast	NS1 inh	2A StopGo	Cruzain noTriton	Cruzain Triton	RE007 growth inh	MARV entry inh
Cc1nc2ncnn2c(C)c1CCC(=O)N1CCC2(CC1)OCCO2	14.4%	13.1%	1.9%	19.3%	-1.9%	2.5%	2.4%	-4.9%
c1cc(C(c2nnnn2C2CCCCC2)N2CCN3CCCC3C2)ccn1 (stereo not given)	4.1%	-6.5%	-3.6%	/	6.9%	-0.6%	-10.3%	-5.3%
COc1ccccc1CN1CCNC(=O)C1=O	-2.2%[46.1 µM]	/	/	-20.5%	-9.8%	1.4%	/	/
CCOc1ccc(CCNC(=O)COC(=O)c2ccc3c(c2)OCCO3)cc1OCC	-20.3%	4.5%	/	-23.9%	/	/	5.1%	24.3%
Cc1csc(=O)n1CC(=O)Nc1ccc(S(C)(=O)=O)cc1	-0.7%[46.1 µM]	-6.5%	/	9.2%	/	/	6.5%	-2.5%[46.1 µM]
CNCc1cc2ccc(C)cc2[nH]c1=O	2.5%	6.5%	-4.7%	-18.0%	0.2%	3.7%	-17.6%	-1.0%
COc1cccc2cc(C(C)=O)oc12	-16.0%	3.5%	0.4%	-16.6%	/	/	11.1%	-19.6%
CC(C)CCOP(=O)(c1ccc(N(C)C)cc1)C(O)c1ccc(C(C)C)cc1 (stereo not given)	/	0.8%	8.5%	9.1%	/	/	-3.4%	/
CCOc1ccc(NC(=O)NCCc2c(C)nn(C)c2C)cc1	-6.0%[46.1 µM]	/	/	-2.9%	4.0%	-0.9%	/	/
CCCCN(C)CCCNC(=O)c1ccc(N2CCCC2=O)cc1	-1.9%	3.9%	-2.5%	-17.0%	-3.2%	2.1%	4.1%	0.8%

Just Cruzain noTriton, LASV entry inh and RE007 growth inh (three entries from above):
molecule	Cruzain noTriton	LASV entry inh	RE007 growth inh
Cc1csc(=O)n1CC(=O)Nc1ccc(S(C)(=O)=O)cc1	/	-0.7%[46.1 µM]	6.5%
CNCc1cc2ccc(C)cc2[nH]c1=O	0.2%	2.5%	-17.6%
COc1cccc2cc(C(C)=O)oc12	/	-16.0%	11.1%

The list goes on:
SMILES	LASV entry inh	SARS PLpro yeast	NS1 inh	2A StopGo	Cruzain noTriton	Cruzain Triton	RE007 growth inh	MARV entry inh
Cc1cc(NS(=O)(=O)c2ccc(NC(=O)c3cc4cc(Br)ccc4oc3=O)cc2)no1	-18.5%	2.0%	/	-1.7%	/	/	7.4%	13.3%[46.1 µM]
CCOc1cc2c(cc1OCC)-n1cccc1C(c1cc(C)c(OC)cc1C)NC2 (stereo not given)	/	0.1%	6.2%	?	/	/	-2.7%	-9.8%
COC(=O)c1cc(OC)c(OC)cc1NC(=O)c1cccc(C)c1	-6.0%	0.3%	0.7%	-13.2%	/	/	11.1%	9.4%
CCc1ccc(NC(=O)C2CCCN2S(=O)(=O)c2ccc3c(c2)CCCC(=O)N3)cc1 (stereo not given)	-9.6%[46.1 µM]	/	/	0.0%	-2.5%	-0.9%	/	/
COc1ccccc1NC(=O)CSc1nc2nc(C)cc(C)c2c(=O)[nH]1	16.3%	0.6%	-1.3%	-2.5%	1.7%	2.6%	-1.8%	7.3%
COc1cc(C2C=C(Nc3ccccc3)C(=O)N2c2ccccc2)ccc1O (stereo not given)	?	-9.2%	?	?	16.8%	-5.8%	3.7%	11.0%
CC(C)(C)N(Cc1ccccc1)C(=O)COC(=O)c1cccc([N+](=O)[O-])c1	?	-4.2%	/	-20.2%	/	/	-1.8%	8.9%[46.1 µM]
O=C(/C=C/c1ccccc1)NC(NC(=S)Nc1cc(Cl)ccc1Cl)C(Cl)(Cl)Cl (stereo not given)	?	-0.4%	0.6%	-12.0%	-10.7%	8.7%	14.3%	?
COc1cccc(CNC(=O)CCC2CCCN(C(=O)c3ccoc3C)C2)c1 (stereo not given)	13.5%[46.1 µM]	0.4%	0.3%	-7.7%	/	/	8.6%	-0.2%[46.1 µM]
CCOc1ccc(CCNC(=O)c2cccc(-n3c(C)nc4cccnc43)c2)cc1	-11.1%[46.1 µM]	/	/	0.0%	?	-3.9%	/	/
CC(C)CCn1c(O)c(N=NC(=O)c2ccco2)c2ccccc21	7.9%	-7.7%	-5.6%	-13.1%	1.3%	-12.6%	4.8%	-12.4%
Clc1ccc(-c2noc3ncnc(N4CCCCC4)c23)cc1	-2.1%[46.1 µM]	/	/	-28.0%	0.0%	-3.6%	/	11.7%[46.1 µM]
COc1cc(OC)cc(C(=O)N[C@H](C(=O)OCc2cc(=O)oc3cc(C)ccc23)C(C)C)c1	-1.4%	9.0%	-0.2%	32.5%[activator]	-6.8%	-12.8%	19.6%	?
Cn1c(=O)c2c(ncn2Cc2nnc(N)s2)n(C)c1=O	7.8%	-0.2%	11.2%	-13.7%	/	/	12.6%	?
CC(=O)NC(=S)Nc1ccc(NC(=O)c2cccnc2Cl)cc1	11.0%	-1.5%	-7.2%	56.7%[activator]	/	/	-15.4%	?
COc1cccc(CNC(=O)COC(=O)C2CCN(c3ccc(C(F)(F)F)cn3)CC2)c1	20.5%	-2.7%	/	1.5%	/	/	11.6%	25.9%
CCC(=O)c1ccccc1OCCN1CCN(CC)CC1	1.6%	-1.8%	1.3%	16.1%	/	/	-2.2%	-26.0%
CCN(Cc1cc(OC)c(OC)c(OC)c1)C(=S)Nc1cccc(SC)c1	-31.2%	0.8%	-9.4%	?	/	/	11.1%	-18.7%
CC1CCCC(C)N1C(=O)Cc1ccccc1 (stereo not given)	13.4%	13.2%	6.2%	22.1%	10.8%	2.4%	6.0%	15.1%
Cc1cc(OCC(O)CN2CCN(CCO)CC2)ccc1C(C)C (stereo not given)	-7.8%	-7.0%	0.7%	-3.7%	-3.6%	2.8%	7.6%	6.2%
CCCc1[nH]n(-c2ccc([N+](=O)[O-])cc2)c(=O)c1C=NCCc1c[nH]c2ccccc12	-0.6%	-2.1%	29.0%	?	-14.0%	-5.2%	17.1%	-25.6%[46.1 µM]
CCC(O)C1CCN(Cc2cn(Cc3ccccc3)nc2-c2cc3ccccc3o2)CC1 (stereo not given)	/	0.1%	1.6%	-5.6%	/	/	4.5%	/
COc1ccccc1C(=O)Nc1cc(Cl)ccc1O	-9.8%	-3.7%	-11.3%	-12.0%	?	-2.3%	2.8%	-10.4%
COc1ccc(CNC(=O)CCS(=O)(=O)c2ccc3c(c2)NC(=O)C(C)S3)cc1 (stereo not given)	/	-1.9%	3.0%	?	/	/	3.2%	/
O=[N+]([O-])c1ccccc1N(CC1CO1)S(=O)(=O)c1ccccc1 (stereo not given)	-20.0%[46.1 µM]	0.5%	6.2%	8.3%	/	/	5.0%	?
CC1(C)CC(C)(O)N(Cc2ccccc2)C(=S)N1 (stereo not given)	-0.9%	7.2%	-2.9%	-7.6%	1.5%	0.4%	-5.8%	5.4%
CCc1cccc(CC)c1NC(=O)C1CCC(CNS(=O)(=O)c2cccc3nsnc23)CC1 (stereo not given)	-8.2%[46.1 µM]	/	/	-27.0%	-6.5%	-1.3%	/	-20.1%[46.1 µM]
CC(CNC(=O)CCc1nnc2ccc(N3CCC4(CC3)OCCO4)nn12)c1ccccc1 (stereo not given)	/	5.7%	-8.3%	-9.6%	/	/	-2.7%	/
CC1(C)CC(=O)C2=C(C1)Nc1ccccc1NC2c1ccc([N+](=O)[O-])cc1 (stereo not given)	-19.5%[46.1 µM]	/	/	-16.0%	/	/	-2.0%	4.2%[46.1 µM]
COc1ccc(OC)c(CCNC(=O)c2ccc3c(c2)N(Cc2ccc(C)cc2)CCS3)c1	22.1%[46.1 µM]	/	/	-13.1%	-26.2%	-5.6%	/	-2.9%[46.1 µM]
Cc1nc(N2CCN(C)CC2)c2c3c(sc2n1)CCCC3	/	-1.2%	-0.2%	-18.9%	/	/	-15.9%	/
COc1ccccc1N1CCN(C(=O)CNC(=O)c2cn(-c3ccccc3OC)c(=O)c3ccccc23)CC1	?	-0.7%	/	34.5%[activator]	/	/	155.2%	?
CC1=C(C(=O)Nc2ccc(C(=O)NCCC(C)C)cc2)SCCO1	-18.7%[46.1 µM]	-0.7%	0.8%	-5.5%	/	/	-5.4%	-11.7%[46.1 µM]
CCN1C(=O)C(CC(=O)Nc2ccc(OC)cc2)N(CCCN2CCN(c3ccc(F)cc3)CC2)C1=S (stereo not given)	-6.2%	-5.1%	/	?	/	/	-4.0%	?
COC(=O)CN1C(=S)N(c2ccc(F)cc2)C(=O)C1CC(=O)Nc1ccc(OC)cc1 (stereo not given)	/	1.6%	-3.2%	-4.5%	/	/	-5.9%	/
CCN(CC)C(=O)Cn1cc(C(=O)C(=O)NCCc2c[nH]c3ccccc23)c2ccccc21	/	4.1%	19.7%	-10.5%	/	/	-2.6%	/
O=C(COc1ccccc1[N+](=O)[O-])Nc1ccc2oc(=O)ccc2c1	/	-5.4%	-1.9%	-2.7%	/	/	4.8%	/
CCOC(=O)c1c(CN2CCOCC2)n(-c2ccccc2)c2cc(Br)c(O)cc12	-5.4%	-10.3%	-57.4%	7.6%	?	-4.5%	-15.4%[3.69 µM]	12.2%
COC(=O)CSc1nnc([C@H](CC(C)C)NC(=O)OC(C)(C)C)o1	-2.4%	-1.4%	-0.9%	5.0%	-24.0%	?	2.2%	0.9%
COc1ccc(CCn2c(C)cc(C(=O)CSc3nnnn3-c3ccccc3)c2C)cc1OC	?	-1.2%	-1.5%	-8.7%	8.2%	0.2%	-13.5%	-24.8%
Cc1ccccc1-c1nc(S(=O)(=O)c2ccc(Br)cc2)c(NCc2cccnc2)o1	-14.0%	2.3%	18.0%	17.1%	1.0%	-4.9%	-12.0%	?
COc1ccc(N/C(C)=C2/C(=O)C(=O)N(CCO)C2c2ccc(Br)cc2)cc1 (stereo not given)	-7.3%	-2.5%	-11.4%	-18.1%	19.3%	-7.3%	-10.3%	-0.2%
N/C(=N\OC(=O)c1ccc(Br)cc1)c1cccc([N+](=O)[O-])c1	/	-4.1%	-33.2%	73.1%[activator]	/	/	4.4%	/
